Screening results from PubChem.
Bm FixLJ act: activators of Burkholderia fixLJ two-component system; AID 1918990; B. multivorans fixK-promoter GFP reporter, 18 h; active compounds read high; 29,000 tested, 0.3% active; z-score (concentration not given with the values);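 active means replicate mean overnight rise in green fluorescent reporter signal, 3 or more SD over negative controls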;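 further: score is relative to vehicle wells of the plate; 300 nL library stock went into each well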
* hit, by the source's call; & = joins results of further samples. Only part of the results is shown; the hit share may differ from the screen's.

SMILES	Bm FixLJ act
CCCCN(CC)CCNC(=O)c1cc2c(-c3ccc(Cl)cc3)nn(C)c2s1	-1.26
CCN(CC)c1ccc(CN(C(=O)c2cc(=O)c3ccccc3o2)C2CCS(=O)(=O)C2)cc1 (configuration not stated)	-2.92
COc1ccc2oc(-c3ccc(C)c(NC(=O)c4sc5ccccc5c4Cl)c3)nc2c1	-0.54
COc1ccc(NC(=O)c2sc3nc4c(c(-c5ccc(OC)cc5)c3c2N)C(=O)CC(C)(C)C4)cc1	-1.42
COc1ccc(OCCCCn2c(-c3ccc(Cl)cc3)nc3ccccc3c2=O)cc1	-0.5
COc1ccnc(NCc2cc3c(nc2OC)CN(C2CCCC2)C3=O)n1	-0.69
Cc1ccc(C)c(N2CCN(C(=O)c3cn(CC(C)C)c(=O)c4c3c3ccccc3n4C)CC2)c1	-0.72
CCOc1ccc(C2N3CC4(C(C)C)CN2CC(C(C)C)(C3)C4=O)cc1OC (configuration not stated)	-0.69
COc1ccc(-n2c(-c3ccccc3F)nc3c(cnn3-c3ccc(C)cc3)c2=O)cc1	-1.43
CNC(CC(C)C)C(=O)N1CCC2(CC1)OCCc1cc(OC)ccc12 (configuration not stated)	-3.96
CCc1cccc(NC(=O)C(Cc2ccccc2)NS(=O)(=O)c2ccc3c(c2)oc(=O)n3C)c1 (configuration not stated)	-0.19
CC1=C(C(=O)Nc2ccccc2)C(C(C)C)n2nc(SCc3ccccc3C)nc2N1 (configuration not stated)	-1.74
CCOc1ccc(NC(=O)c2oc3ccccc3c2NC(=O)Cc2cccc(C)c2)cc1	0.24
CCCCCC(=O)N(c1ccc(OCC)cc1)S(=O)(=O)c1ccc2c(c1)n(C)c(=O)n2C	2.5
CN(C)CC(=O)Nc1ccc(NC(=O)Cc2c(F)cc(F)cc2F)cc1	-1.03
O=C(Nc1cc(-c2nc3cc(Cl)ccc3o2)ccc1Cl)c1cc2ccccc2o1	-0.64
Cc1cc(C)c(Nc2nn3c(=O)c4cc5c(cc4nc3s2)OCO5)c(C)c1	0.56
Cc1ccc(Cn2c(=O)n(-c3ccccc3)c(=O)c3ccc(C(=O)NCc4ccco4)cc32)cc1	0.06
COc1cc(Cl)c(C)cc1NC(c1ccccc1)c1nnc(-c2ccccc2Cl)o1 (configuration not stated)	0.33
CCOCC1(CNC(=O)c2nnc3nc(C)ccn23)CCC1	-0.1
CNc1nc(Oc2ccc(=O)[nH]n2)nc(N2CCOCC2)n1	-0.49
COc1cc(C(=O)N2CC(O)C(N3CCCCC3)C2)ccc1F (configuration not stated)	0.62
COc1ccc(-n2cnnc2)cc1NC(=O)Cc1cccc(F)c1F	-2.22
O=C(NCCCc1ccccc1)c1nn(-c2ccccc2F)nc1CO	-0.83
CCc1ccc(NC(=O)C2CCN(c3ccc(Sc4ccc(C)cc4)nn3)CC2)cc1	0.14
COc1ccc(CNC(=O)c2c(O)nc3c(C)cccn3c2=O)cc1	-0.72
Cc1ccc(-c2nc(NC(=O)CSc3nc(C)nc4sc5c(c34)CCCC5)ns2)cc1	-0.43
C=CCC(CC=C)(CNC(=O)C(=O)Nc1ccc(Br)cc1)c1ccc(OC)c(OC)c1	0.2
COc1ccc(CN2C(=O)c3ccccc3C2C(=O)NC2CCCCCC2)c(OC)c1 (configuration not stated)	-2.33
O=C(c1ccc2[nH]ccc2c1)N1CCCC2(CCc3cn[nH]c32)C1 (configuration not stated)	-1.18

Among those listed so far, these contain an aryl thioether with sulfur outside any ring.
SMILES	Bm FixLJ act
CC1=C(C(=O)Nc2ccccc2)C(C(C)C)n2nc(SCc3ccccc3C)nc2N1 (configuration not stated)	-1.74
CCc1ccc(NC(=O)C2CCN(c3ccc(Sc4ccc(C)cc4)nn3)CC2)cc1	0.14
Cc1ccc(-c2nc(NC(=O)CSc3nc(C)nc4sc5c(c34)CCCC5)ns2)cc1	-0.43

Next section:
SMILES	Bm FixLJ act
CCCN(CCC)CCCNC(=O)C1CCCN(S(=O)(=O)c2cccc3nsnc23)C1 (configuration not stated)	-0.55
Cc1ccc(Cl)cc1N1CCN(C(=O)c2cc3c(=O)n(C)c4ccccc4c3s2)CC1	-1.71
Cc1nn(-c2ccccc2)c2sc(C(=O)Nc3ccc(Br)cc3)cc12	-0.4
CCc1ccc(OCC(=O)Nc2ccc(Cl)c(-c3nc4ncccc4o3)c2)cc1	-1.21
COC(=O)Cc1c(C)c2ccc3c(c2oc1=O)CN(Cc1ccc(Cl)cc1)CO3	-1.07
O=C(NCc1ccccc1)C1CCC(CNS(=O)(=O)c2ccc(Br)s2)CC1 (configuration not stated)	-0.16
CC(C)Cc1cc(C(=O)N2CCN(CCCCO)CC2)n(C)n1	-3.9
COc1cc([N+](=O)[O-])ccc1NC(=O)c1nc2ccccc2n(C)c1=O	-1.19
O=C(Cn1cc(S(=O)(=O)c2ccccc2)c(=O)c2cc3c(cc21)OCO3)Nc1ccc(Cl)cc1	-0.71
CCc1nnsc1C(=O)N1CCCC2(CCC(=O)N(CCOC)C2)C1 (configuration not stated)	-0.2
COc1ccc(-n2nc3cc(C)c(NC(=O)COc4cccc(C)c4)cc3n2)cc1	-0.76
COc1ccc(S(=O)(=O)N2CCC[C@]3(CCCC3O)C2)cc1OC (some centres not stated)	-1.1
O=C(CCS(=O)(=O)c1nc(-c2ccc3c(c2)OCO3)cc(C(F)(F)F)n1)Nc1ccc(F)c(Cl)c1	-1.42
Cc1cc(N2CCC(C)CC2)nc2ccc(NC(=O)/C=C/c3cccc(Cl)c3)cc12	0.07
COc1cccc(C(=O)n2nc(-c3ccco3)nc2NCc2cccs2)c1	-2.22
CC(C)C(NS(=O)(=O)c1ccc2c(c1)oc(=O)n2C)C(=O)NCCc1ccc(Cl)cc1 (configuration not stated)	-1.32
NC(=O)Cc1nc(C2(Cn3ccnc3)CC2)n(CC(F)(F)F)n1	0.04
Cc1noc(C)c1CN1CCC(NC(=O)CCc2cccnc2)C(O)C1 (configuration not stated)	-0.4
O=C(CN1C(=O)COc2ccc(Cl)cc21)Nc1cccc(C(=O)O)c1	-1.86
CC(=O)c1c(C)nn(CC(=O)N2CCN(c3nsc4ccccc34)CC2)c1C	0.53
CCOC(=O)CNC(=O)c1cc2c(=O)n(CC)c3ccccc3c2s1	-1.09
CC1CCCCN1C(=O)c1cc(-c2ccc(Br)cc2)on1 (configuration not stated)	1.02
CCOc1ccc(-c2nc(SCC(=O)NC3CCCC3)c(-c3ccccc3)[nH]2)cc1OC	-1.17
Cc1csc2nc(COc3ccc(NC(=O)COc4ccc(F)cc4)cc3)cc(=O)n12	-2.45
COc1ccc(Nc2nnc(-c3ccc(C)c(S(=O)(=O)N4CCN(C)CC4)c3)c3ccccc23)cc1	-0.73
CC(C)NC(=O)CN1C(=O)COc2ccc(S(=O)(=O)N3CCCCCC3)cc21	-2.13
Cc1cccc(NC(=O)CSc2nnc3c4ccccc4n(C)c3n2)c1	-0.41
COc1ccc(C(=O)Nc2ccc(OCc3cc(=O)n4ccsc4n3)cc2)cc1OC	-0.29
Cc1cc(C)c(NC(=O)Cn2nnc(-c3ccccc3)n2)c(C)c1	-3.49
COC(=O)c1c(NC(=O)c2ccc(Cl)c(Cl)c2)sc2c1CCCC2	-1.24

Exported as comma-separated lines: part of the list above.
SMILES,Bm FixLJ act
CC(=O)c1c(C)nn(CC(=O)N2CCN(c3nsc4ccccc34)CC2)c1C,0.53
CC(C)C(NS(=O)(=O)c1ccc2c(c1)oc(=O)n2C)C(=O)NCCc1ccc(Cl)cc1 (configuration not stated),-1.32
CCOc1ccc(-c2nc(SCC(=O)NC3CCCC3)c(-c3ccccc3)[nH]2)cc1OC,-1.17
Cc1csc2nc(COc3ccc(NC(=O)COc4ccc(F)cc4)cc3)cc(=O)n12,-2.45
NC(=O)Cc1nc(C2(Cn3ccnc3)CC2)n(CC(F)(F)F)n1,0.04

Carrying on:
SMILES	Bm FixLJ act
Cc1ccc(CNC(=O)c2ccc3nc(SCc4ccc(F)cc4)[nH]c3c2)cc1	-0.3
CCc1csc(CCNC(=O)N2CCCC(C(=O)c3cccs3)C2)n1 (configuration not stated)	-0.67
CCCOc1ccc(Oc2nc(NCC(C)C)nc(N3CCOCC3)n2)nn1	-0.99
Cc1ccc2c(c1)-c1c(cnc3cc(-c4ccccc4)nn13)CO2	0.52
CCCCOc1ccccc1C(=O)N(Cc1sccc1C)C1CCS(=O)(=O)C1 (configuration not stated)	-1.74
COc1ccc(C(C)=O)cc1NC(=O)N(C)C(C)Cc1cc(C)ccn1 (configuration not stated)	-1.81
Cc1nn(CC(=O)NC2CC2)c(=O)c2cc3cc(F)ccc3n12	-0.76
Cn1c(=O)n(C)c2cc(N3CCOCC3)c(NS(=O)(=O)c3ccc(F)cc3)cc21	0.57
Cc1cnc(CN(C)C(=O)COc2ccc(Cl)cc2Cl)[nH]1	-1.43
Cc1ccc(Cn2c(=O)n(CCc3ccccc3)c(=O)c3c(C)c(C)sc32)cc1	-1.35
Cc1cccc(OCC(=O)Nc2cccc3cccnc23)c1C	-0.5
CCCOC(=O)c1c(NC(=O)C2c3ccccc3Oc3ccccc32)sc2c1CCCC2	-1.08
Cc1ccc(C(=O)c2oc3ccccc3c2NC(=O)C(C)Oc2ccccc2Cl)cc1 (configuration not stated)	-2.2
CCc1nc(NCc2cn[nH]c2-c2ccc(Cl)cc2)c2cnn(C)c2n1	0.11
COc1ccc(-c2nc(SCC(=O)Nc3ccc4c(c3)OCO4)c(-c3ccccc3)[nH]2)cc1	0.16
COCC1C(NC(=O)Nc2ccccc2Cl)C2CCOC21 (configuration not stated)	-0.38
CCN(CC)CCCNC(=O)Cn1nc(C)n2c(cc3sccc32)c1=O	-2.15
CSc1ccc(-c2nc3cccc(C)n3c2Nc2ccc3c(c2)OCO3)cc1	0.02
CC(=O)N1CCc2cc(S(=O)(=O)NC(CC(C)C)C(=O)Nc3ccc(C(C)C)cc3)ccc21 (configuration not stated)	-2.33
CCCc1cc(C(=O)Nc2c(C)nn(Cc3ccc(Cl)c(Cl)c3)c2C)no1	-1.72
CCOc1ccccc1NC(=O)c1ccc2oc(=O)c(S(=O)(=O)c3ccc(F)cc3)cc2c1	-0.01
CCOc1cc(C(=O)Nc2cc3c(cc2N2CCCC2)n(C)c(=O)c(=O)n3C)cc(OCC)c1OCC	0.87
O=C(C1CCC1)N1CC2CCC(C1)N(C(=O)c1ccc3ccccc3n1)C2 (configuration not stated)	-0.75
CCc1cc(C#N)ccc1NC(=O)NCc1cncn1CC(C)C	-1.36
Cc1cc(CC2CN(C(=O)Cc3ccc(Cl)c(Cl)c3)CC2O)on1 (configuration not stated)	-1.21
CCCOc1ccc(C2c3c(-c4c(C)cc(C)cc4O)n[nH]c3C(=O)N2CCO)cc1 (configuration not stated)	-2.14
COc1ccc(OC)c(S(=O)(=O)Nc2ccc3c(c2)n(C)c(=O)n3C)c1	-0.28
COc1ccc(/C=C/C(=O)Nc2nc3n(n2)C(c2ccccc2)C=C(c2ccccc2)N3)cc1 (configuration not stated)	-1.39
CC(C)(Oc1ccc(CCNC(=O)c2ccc(Cl)cc2)cc1)C(=O)O	-1.14&-2.75
COc1ccc2c(c1)CCOC21CCN(C(=O)c2cc[nH]c2C)CC1	-0.25

Some of these compounds in order of length of the SMILES, low to high:
SMILES	Bm FixLJ act
COc1cc(C(=O)N2CC(O)C(N3CCCCC3)C2)ccc1F (configuration not stated)	0.62
Cc1noc(C)c1CN1CCC(NC(=O)CCc2cccnc2)C(O)C1 (configuration not stated)	-0.4
CCCOc1ccc(Oc2nc(NCC(C)C)nc(N3CCOCC3)n2)nn1	-0.99
CC(=O)c1c(C)nn(CC(=O)N2CCN(c3nsc4ccccc34)CC2)c1C	0.53
COc1ccc(C(=O)Nc2ccc(OCc3cc(=O)n4ccsc4n3)cc2)cc1OC	-0.29
CCOc1ccc(NC(=O)c2oc3ccccc3c2NC(=O)Cc2cccc(C)c2)cc1	0.24

More compounds.
SMILES	Bm FixLJ act
CCOc1ccccc1N(C)C(=O)Cn1nc(Cc2ccncc2)c2ccccc2c1=O	-1.63
CCC1CCCCN1S(=O)(=O)c1ccc(NC(=O)c2cc(=O)c3c(C)cc(C)cc3o2)cc1 (configuration not stated)	-2.23
N#C/C(=C\c1ccc(F)cc1)c1nc(-c2ccc(-c3ccccc3)cc2)cs1	0.71
COc1ccc(/C=C/c2nc(C#N)c(N3CCC(C(N)=O)CC3)o2)cc1OC	1.3
Cc1ccc(CNC(=O)c2ccc3c(c2)N(Cc2ccccc2)C(=O)c2ccccc2S3(=O)=O)cc1	1.91
O=C(c1nnc2n1CCCC2)N1CC(O)C(Cc2ccc3ccccc3n2)C1 (configuration not stated)	-0.37
CCOc1ccc(CN(CCc2ccc3c(c2)OCO3)Cc2cc(OC)ccc2O)cc1	0.71
Cc1cccc(N2CCN(C(=O)CS(=O)(=O)Cc3nc(-c4ccccc4C)oc3C)CC2C)c1 (configuration not stated)	-0.08
O=C(CCc1cn2ccccc2n1)N(Cc1ccccn1)CC1CCCO1 (configuration not stated)	-0.94
COc1ccc(NC(=O)CC2C(=O)N(c3ccc(C)cc3)C(=O)N2Cc2ccc(C)cc2)cc1 (configuration not stated)	0.82
CC(=O)Nc1cccc(-c2nnc(SCC(=O)c3cc([N+](=O)[O-])ccc3Cl)o2)c1	-3.95
COc1ccc2c(CC(=O)Nc3ccc(C)cc3)coc2c1	-1.37
COc1cccc(-c2cc(C(=O)Nc3cc(C)nn3-c3ccccc3)no2)c1	-1.46
CCc1ccc(-n2c(C)nnc2SCc2nc(-c3ccc(OC)cc3)no2)cc1	-0.96
O=C(NCCCN1CCCC1=O)c1cccc(-c2nncs2)c1	-1.88
COc1cc(C(=O)Nc2ccc(CC(=O)NC3CC3)cc2)ccc1C	-2.35
CCC(=O)N1CCc2cc(S(=O)(=O)NC(CC(C)C)C(=O)NCCc3ccccc3)ccc21 (configuration not stated)	-1.33
Cc1c(C(=O)N(Cc2ccc(N(C)C)cc2)C2CCS(=O)(=O)C2)oc2ccccc12 (configuration not stated)	-4.11
CCC(=O)N1CCc2cc(Br)cc(S(=O)(=O)CCC(=O)NCc3cccc(OC)c3)c21	0.1
Cc1ccccc1N1CCN(C(=O)CCN2Cc3ccccc3C2=O)CC1=O	0.51
COc1ccccc1NC(=O)NCCN1CCN(c2cccc(Cl)c2)CC1	0.73
CCn1c(=O)cc(SCC(=O)Nc2ccc(C)c(F)c2)c2ccccc21	-1.68
O=C(NC1COCC1Cc1ccncc1)c1ccc(-n2ccnc2)cc1 (configuration not stated)	0.59
COc1ccc(OC)c(NC(=O)CS(=O)(=O)Cc2nc(-c3ccc(C)cc3)oc2C)c1	-1.52
